Screening results deposited in PubChem by National Center for Advancing Translational Sciences (NCATS).
Sfp PPTase inh = blocks B. subtilis Sfp PPTase activity. Biochemical Sfp PPTase activity, qHTS. Potency, µM, for the others: max response, negative = inhibition, usual class: inhibitors. 310,000 compounds, 3.5% hits. AID 1490; active = well fitted inhibition curve with a large enough effect; inconclusive = small, poorly fitted or top-dose-only effect, or another doubt; inactive = no such curve, though single readings can be large or run the other way;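 note: the enzyme is Sfp with the accession as filed and its product quenches rhodamine fluorescence; potency is the fitted concentration of half-maximal effect; 0% = enzyme reaction without inhibitor and -100% = no enzyme wells; top concentration of the series not given in the record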
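Sfp 15 nM + cpd, 15 min RT; start w/ rhodamine-CoA 5 uM, BHQ-2-YbbR 12.5 uM (final); 50 mM Hepes pH 7.6, 10 mM MgCl2, 0.01% NP-40, 0.01% BSA; read 525/598 nm at 0 and 30 min.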
Menin MLL FP FL = inhibitors of human menin-MLL interaction, wild-type MLL peptide. 290,000 tested, under 10 active. FP activity change, % at 61.4 µM. AID 1766. Fluorescence polarization, fluorescein-MLL peptide displacement from menin; inconclusive = falling polarisation curve, or a change in total fluorescence; inactive = total fluorescence flat and polarisation flat or rising; no compound was filed as active; the % refers to the polarisation; negative = inhibition;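 note: % of control where 0% means no effect; inhibitors lower the polarisation; unlabelled MLL peptide was the positive control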
* hit, by the source's call; ? = inconclusive; & = joins results of further samples; [ ] = dose if it differs, or a comment. This is a subset. The share of hits here may be higher or lower than overall.

cpd	canonical_smiles	Sfp PPTase inh	Menin MLL FP FL
1	CC1=CC(=O)C2=C(C)C[C@H](OC(=O)Cc3ccccc3)C3[C@H](OC(=O)[C@H]3C)C12 (stereo partly specified)	-14%	3.1
2	COc1ccc2c(=O)cc(-c3ccc(O)cc3)oc2c1	-1%	?
3	CCCCC(CC)COC(=O)CC(C(=O)OCC(CC)CCCC)S(=O)(=O)O (stereo unspecified)	-14%	-4.0
4	C#CCCCCCCCCCCCCCCCC(=O)O	3%&-7%&-16%	-2.1&-17
5	c1ccc2c(Cc3c[nH]c4ccccc34)c[nH]c2c1	0%&-1%&-10%&6%	0.5&1.5
6	CC(C)[C@H](NC(=O)[C@H](CC(=O)O)NC(=O)CNC(=O)[C@@H](N)CCCN=C(N)N)C(=O)O	9%	6.5
7	COc1ccc(-n2[nH]c3c4c(ncc3c2=O)CCCCC4)cc1	22%	-2.8
8	C=CCC1(c2ccccc2)Oc2ccc(C)cc2-c2nc3cc(Cl)c(Cl)cc3nc21 (stereo unspecified)	-15%	-9.2[11.7 µM]
9	COc1ccc(C2/C=C\C(c3ccc(OC)cc3)N(Cc3ccc(F)cc3)C(=O)C(=O)N2Cc2ccc(F)cc2)cc1 (stereo unspecified)	4%	-1.6[44.5 µM]
10	COC(=O)c1nnc(N[C@@H](Cc2c[nH]c3ccccc23)C(=O)OC)nc1C(=O)OC	-6%	-1.4
11	Cc1c(-c2ccc(O)cc2)nn(-c2ccc(O)cc2)c1-c1ccc(OCCN2CCCCC2)cc1	?	-6.5
12	COC(=O)c1ccc(C(NC(=O)OCc2ccccc2)/C(F)=C/[C@@H](C)C(=O)NCc2nc3ccccc3s2)cc1 (stereo partly specified)	9%	6.4
13	O=CC(O)C(O)C(O)C(O)CO (stereo unspecified)	15%	-4.8
14	O=NCc1ccc([N+](=O)[O-])o1	8%	-2.3
15	COC(=O)C1=C(C(=O)OC)[C@@H]2N(C)c3ccccc3[C@@]23C[C@@H](C(=O)OC)N(S(=O)(=O)c2ccc(OC)cc2)C3=N1	-9%	-0.9[11.7 µM]
16	C=CCC(C)(O)c1ccsc1 (stereo unspecified)	14%	-6.6
17	C=CCNC1=C2C[C@@H](C)C[C@H](OC)[C@H](O)[C@@H](C)/C=C(\C)[C@H](OC(N)=O)[C@@H](OC)/C=C/C=C(\C)C(=O)NC(=CC1=O)C2=O	30%	-0.2[11.7 µM]
18	CCOC(=O)CC(CC(C)=O)C(=O)OCC (stereo unspecified)	-13%	-6.8
19	NC[C@@H]1O[C@H](O[C@H]2[C@H](O)[C@@H](O[C@H]3[C@H](O)[C@H](N)C[C@H](N)[C@H]3O[C@@H]3O[C@H](CO)[C@@H](O)[C@H](O)[C@@H]3N)O[C@H]2CO)[C@@H](N)[C@H](O)[C@@H]1O	17%	4.0[24.8 µM]
20	C=CC1=C2C=C(C3CC3)N(C3CCCCC3)C=C2C(=O)C(C)(OC(=O)c2ccco2)C1=O (stereo unspecified)	-4%	-0.9[11.7 µM]
21	C=C(C)[C@H]1CC[C@]2(CO)CC[C@]3(C)[C@@H](CC[C@H]4[C@@]5(C)CC[C@@H](O)C(C)(C)[C@@H]5CC[C@@]43C)[C@H]12	1%	3.2[24.8 µM]
22	O=C(O)c1ccc2cc(-c3ccc(O)c(C45CC6CC(CC(C6)C4)C5)c3)ccc2c1	-9%	-4.2
23	CCCCC/C=C\C=C\C(O)CCCCCCCC(=O)O (stereo unspecified)	-2%	-2.7
24	C[C@H](NC(=O)[C@@H]1C[C@H]1[C@@H](NC(=O)OCc1ccccc1)c1ccccc1)c1ccccc1	23%	-2.1
25	O=C(c1ccccc1)[C@@H]1O[C@H]1c1ccc(-c2ccccc2)cc1	-25%	?
26	O=C1C2=CC[C@H]3C(=O)N(c4cccc(Oc5ccccc5)c4)C(=O)[C@@H]3[C@@H]2[C@H](O)[C@@H]2O[C@H]12	-10%	0.2[11.7 µM]
27	COc1cc2c(cc1OC)C1C(=O)c3ccc4c(c3OC1CO2)C=CC(C)(C)O4 (stereo unspecified)	-19%	1.0
28	C=C[C@]1(C)Cc2occ(C)c2C[C@H]1C(=C)C(=O)O	7%	3.3
29	O=C(O)CCc1nc2ccccc2[nH]1	1%	-3.2
30	C=CCC1C=CC(Oc2ccc(F)cc2C)C(CO)O1 (stereo unspecified)	9%	1.4[11.7 µM]
31	COC1C=CC23c4cc5c(cc4CN(CC2O)C3C1)OCO5 (stereo unspecified)	-5%	2.3
32	C=CCOC(=O)C(C(C)=O)C(NC(=O)OC)c1cccc(C(F)(F)F)c1 (stereo unspecified)	11%	-3.3[11.7 µM]
33	CCC1(c2ccccc2)NC(=O)NC1=O (stereo unspecified)	-9%	1.1
34	C=C1CCC(O)C/C1=C/C=C1\CCC[C@]2(C)[C@@H]([C@H](C)/C=C/[C@H](C)C(C)C)CC[C@@H]12 (stereo partly specified)	24%	6.3
35	CC1CCCCN1CCCOC(=O)c1ccccc1 (stereo unspecified)	-3%	-1.5
36	COc1cccc(-c2nnc3n2N=C(c2ccccc2OC)CS3)c1	-10%	?
37	CC(=O)OCC(=O)[C@@]1(OC(C)=O)[C@H](C)C[C@H]2[C@@H]3C[C@H](F)C4=CC(=O)C=C[C@@]4(C)[C@]3(F)[C@H](O)C[C@@]21C	22%	0.4[24.8 µM]
38	COC(=O)C/C=C\[C@@H](C)[C@@H](/C=N\O[C@@H](C)c1cc(-c2c(C)cc(C)cc2C)no1)OC	-3%	-0.3[11.7 µM]
39	O=c1cc(-c2ccc(O)cc2)oc2c([C@@H]3O[C@H](CO)[C@@H](O)[C@H](O)[C@H]3O)c(O)cc(O)c12	-3%	-1.0
40	CC(C)[C@@H](OCc1ccccc1)[C@H](C)CO/N=C1/[C@H]2OC2[C@@H](O)[C@H]2[C@H]1CCn1c(=O)n(-c3ccccc3)c(=O)n12 (stereo partly specified)	5%	-1.1[11.7 µM]
41	CO[C@@H]1COC(=O)CC=C[C@@H](C)[C@@H]2C=C[C@@H](O)[C@@H](COC(=O)C/C=C\[C@H]1C)O2	17%	-0.9[11.7 µM]
42	C[C@@]12CCc3occc3[C@H]1CC[C@]13CC(=O)[C@@H](CC[C@H]12)C3	-18%	0.3
43	COc1cccc(CS(=O)(=O)c2nnnn2CC(C)C)c1	3%	2.9
44	O=C(Nc1cccc(C(F)(F)F)c1)Nc1cc(Cl)ccc1C(=O)O	10%	?
45	CC(=O)OC[C@@H]1O[C@@H](O/N=C2/C[C@@H](O)[C@@H](O)[C@@H]3[C@@H]4C(=O)N(C(C)(C)C)C(=O)[C@H]4CC[C@@H]23)[C@H](OC(C)=O)[C@H](OC(C)=O)[C@@H]1OC(C)=O	15%	3.5[11.7 µM]
46	CN(Cc1ccc(C(C)(C)C)cc1)Cc1cccc2ccccc12	2%	-2.4
47	COc1cc2c(cc1OC)[C@@H]1CC(=O)[C@@H](CC(C)C)CN1CC2	24%	-2.5
48	CC1CCC2C(=O)OC(CN3C(=O)c4ccccc4C3=O)CN2C1c1ccc(Br)cc1 (stereo unspecified)	8%	4.6[11.7 µM]
49	CCCCC[C@H](O)/C=C/[C@@H]1[C@H]2C/C(=C/CCCC(=O)O)O[C@H]2C[C@H]1O	30%&23%&-21%	-2.2&-9.6
50	c1ccc2oc(C3=NCCN3)cc2c1	21%	-1.7

Some of these compounds in order of SMILES length, largest number first.
cpd	canonical_smiles	Sfp PPTase inh	Menin MLL FP FL
49	CCCCC[C@H](O)/C=C/[C@@H]1[C@H]2C/C(=C/CCCC(=O)O)O[C@H]2C[C@H]1O	30%&23%&-21%	-2.2&-9.6
42	C[C@@]12CCc3occc3[C@H]1CC[C@]13CC(=O)[C@@H](CC[C@H]12)C3	-18%	0.3
46	CN(Cc1ccc(C(C)(C)C)cc1)Cc1cccc2ccccc12	2%	-2.4
43	COc1cccc(CS(=O)(=O)c2nnnn2CC(C)C)c1	3%	2.9
50	c1ccc2oc(C3=NCCN3)cc2c1	21%	-1.7

More compounds
cpd	canonical_smiles	Sfp PPTase inh	Menin MLL FP FL
51	CCCCCCCCCCCCCCCCCCOC[C@@H](O)COP(=O)([O-])OCC[N+](C)(C)C	-1%	-2.2
52	CN1[C@H](Cc2ccccc2)C=C[C@]1(C)C(=O)NCC1CC1	-5%	?
53	O=C1C=C[C@@H](O)[C@@H]2[C@H]3C(=O)N(c4ccc(F)cc4F)C(=O)[C@@H]3CC[C@@H]12	-3%	3.8[11.7 µM]
54	CC1CCC2C(C)C3C(CC4[C@@H]5CC=C6C[C@@H](O)CC[C@]6(C)C5CC[C@]34C)N2C1 (stereo partly specified)	9%	?
55	CSCC[C@H](NC(=O)[C@@H]1CCCN1C(=O)CNC(=O)[C@H](CCCCN)NC(=O)[C@H](Cc1cnc[nH]1)NC(=O)[C@H](CO)NC(=O)[C@H](CC(C)C)NC(=O)[C@H](CCCNC(=N)N)NC(=O)[C@@H]1CCCN1C(=O)[C@H](CCCNC(=N)N)NC(=O)[C@H](CCC(N)=O)NC(=O)[C@H](CCCNC(=N)N)NC(=O)[C@H](CCCNC(=N)N)NC(=O)[C@H](Cc1ccccc1)NC(=O)[C@@H](N)CCCCN)C(=O)N1CCC[C@H]1C(=O)N[C@@H](Cc1ccccc1)C(=O)O	11%	?
56	CC[C@H](C)[C@H](NC(=O)[C@H](Cc1ccc(O)cc1)NC(=O)[C@@H](NC(=O)[C@H](CCCN=C(N)N)NC(=O)[C@@H](N)CC(=O)O)C(C)C)C(=O)N[C@@H](Cc1ccc(N)cc1)C(=O)N1CCC[C@H]1C(=O)N[C@@H](Cc1ccccc1)C(=O)O	3%	0.0
57	COc1ccc(/C=C/C2=CC3(C)CC2(C)C(c2ccc(OC)cc2)CC3=O)cc1 (stereo unspecified)	-24%	1.2[11.7 µM]
58	Cc1onc(-c2ccccc2)c1C(=O)NC1C(=O)N2C(C(=O)O)C(C)(C)S[C@@H]12 (stereo partly specified)	-2%	-2.1
59	CC(=O)Nc1nc2c(ncn2COCCOC(C)=O)c(=O)[nH]1	13%	-1.4
60	O=C(O)c1ccc2c(c1)C(=O)N([C@H](Cc1ccc3ccccc3c1)C(=O)O)C2=O	-12%	-2.9
61	Cc1cc2c(cc1Cl)C(c1ccccc1C)CC(=O)O2 (stereo unspecified)	-8%	4.0[94.6 µM]
62	C[C@]12C[C@@](C)(C=C1/C=C/c1ccccc1)C(=O)C[C@H]2c1ccccc1	8%	-1.4
63	COc1ccc(C2CC(=O)c3cnc(N4CCc5ccccc54)nc3C2)cc1OC (stereo unspecified)	12%	2.9
64	CCCCCCCCCCCCCCC[C@@H](O)[C@H](CO)NC(=O)CCCCCCC	29%&-11%	-2.5
65	COC[C@H]1O[C@@H](c2c(OC)cc(OC)cc2OC)[C@H](OC)[C@@H](OC)[C@@H]1OC	-5%	1.3
66	Cc1cccc(C)c1Nc1oc(-c2ccccc2)nc1-c1cccc2ccccc12	-1%	1.1
67	COC(=O)[C@H](C)NC(=O)[C@@H](C)CO	23%	-0.6[11.7 µM]
68	COCCNC(=O)COc1ccc(OCCNC[C@@H](O)COc2ccccc2)cc1	1%	-3.9
69	CCOC(=O)OCC1OC(C#Cc2ccc(C)cc2C)C=CC1OC(=O)OCC (stereo unspecified)	20%	1.1[11.7 µM]
70	Cc1ccc(C)n1C(Cc1ccccc1)C(=O)O (stereo unspecified)	10%	?

Molecules shown so far with a tert-butyl group, in the order listed:
cpd	canonical_smiles	Sfp PPTase inh	Menin MLL FP FL
45	CC(=O)OC[C@@H]1O[C@@H](O/N=C2/C[C@@H](O)[C@@H](O)[C@@H]3[C@@H]4C(=O)N(C(C)(C)C)C(=O)[C@H]4CC[C@@H]23)[C@H](OC(C)=O)[C@H](OC(C)=O)[C@@H]1OC(C)=O	15%	3.5[11.7 µM]
46	CN(Cc1ccc(C(C)(C)C)cc1)Cc1cccc2ccccc12	2%	-2.4

Next section:
cpd	canonical_smiles	Sfp PPTase inh	Menin MLL FP FL
71	COC(=O)C1=C(C)N(Cc2ccccc2)[C@]23O[C@](C(=O)OC)(C(=O)N2C1c1ccccc1)C(C(=O)OC)C3C(=O)OC (stereo partly specified)	?	-1.3&-0.8[11.7 µM]
72	Cc1[nH]c(C)c(Cl)c(=O)c1Cl	12%	-3.5
73	CCN(CC)CCOc1ccc(-c2nc3cc(Cl)ccc3s2)cc1	-18%	-4.7
74	O=C(NC[C@@H]1CCCCN1)c1cc(OCC(F)(F)F)ccc1OCC(F)(F)F	22%	-0.3[24.8 µM]
75	C/C(CCN1CCCc2nc(C)c(C)cc21)=N\OC[C@@H](O)[C@@H]1O[C@@H]2OC(C)(C)O[C@@H]2[C@H]1O	14%	1.2[11.7 µM]
76	CC(C)C[C@@H](CC(=O)N[C@@H](CCCN)CC(=O)N[C@@H]1CCCC[C@H]1C(=O)N[C@H](CC(=O)N[C@@H](CCC(=O)O)CC(=O)O)CC(C)C)NC(=O)[C@@H]1CNCC[C@H]1N	-22%	6.3
77	COC(=O)[C@H](COC(C)(C)C)NC(=O)O[C@@H]1C(=O)c2cc(Br)ccc2O[C@H]1c1cccc(OC)c1	-14%	-0.2
78	Cc1nc(N=Nc2ccc(S(=O)(=O)O)cc2S(=O)(=O)O)c(COP(=O)(O)O)c(C=O)c1O	?	-2.2&-3.5
79	CC(C)(C)N1C(=O)[C@H]2[C@@H]3[C@H](O)C=CC(=O)[C@H]3CC[C@H]2C1=O	11%	-1.4[11.7 µM]
80	CCCCNc1nc(C)nc2c1nc(-c1ccccc1)n2CCN1CCCCC1	15%	-1.8
